# Screening data (PubChem BioAssay)
# UUG fidelity: yeast start codon fidelity modulation; activity score, % at 18.7 µM; 350,000 compounds, 0.13% hits; S. cerevisiae UUG-firefly luciferase reporter, luminescence/redox ratio; AID 602363;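 active = replicate mean at a twofold rise or more, about +100% in these data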;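 also: firefly luciferase made from a UUG start codon reports start codon fidelity; reporter light over untreated wells divided by growth signal over untreated wells; some hits fall short of that in this replicate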
# Env fusion inh: HIV envelope-mediated fusion inhibition. 360,000 compounds, 1.1% hits. inhibition, % at 12.3 µM. HeLa-JRFL Env/CEM21 cell fusion, luciferase. AID 651610;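 active = mean replicate inhibition score of at least 50 and every replicate individually at or above 50; inconclusive = only one of the two criteria met; inactive = mean below 50 and not all replicates reaching 50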;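 also: 0% = plate neutral controls and 100% = maraviroc near 300 nM; one replicate is shown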
# MT1-MMP act inh: blocks activation of human MT1-MMP. P50281. HT1080 RFP-PRO-GFP cells, GFP/RFP ratio fluorescence, overnight; percent of plate control window, DMSO zero. GFP/RFP ratio change, % at 20 µM. 360,000 compounds, 0.061% hits. AID 651647;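 active = GFP/RFP ratio change of at least 30% with cell ATP level not reduced by more than half and red fluorescence within 50% of control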; also: strong numbers were not always called active
#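 system = RFP-PRO-GFP reporter HT1080 cells | dosing = 20 µM single dose, 1% DMSO | timing = overnight cell settling, then overnight compound exposure, 37 °C, 5% CO2 | read-out basis = GFP/RFP fluorescence ratio | controls = DMSO and RFP-L50D-GFP cell wells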
# PABP FP inh: PABP-poly(A) binding inhibition; 290,000 compounds, 1% hits; PABP-poly(A) RNA binding, fluorescence polarization; inhibition, % at 35 µM; P11940;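 active = 50% or more with normal probe brightness, or confirmed in later tests; inconclusive = above 50% with abnormal brightness, or retests that disagree; inactive = below 50% or failed in later tests; about a fifth of its hits are not listed in these tables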;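 also: calls also rest on retests at 20 µM and on dose response follow-up; controls were probe without protein and protein plus probe with vehicle; some compounds called inactive have numbers as strong as hits; many hits fall short of the cut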
# Target sequence (P11940 whole entry, looked up): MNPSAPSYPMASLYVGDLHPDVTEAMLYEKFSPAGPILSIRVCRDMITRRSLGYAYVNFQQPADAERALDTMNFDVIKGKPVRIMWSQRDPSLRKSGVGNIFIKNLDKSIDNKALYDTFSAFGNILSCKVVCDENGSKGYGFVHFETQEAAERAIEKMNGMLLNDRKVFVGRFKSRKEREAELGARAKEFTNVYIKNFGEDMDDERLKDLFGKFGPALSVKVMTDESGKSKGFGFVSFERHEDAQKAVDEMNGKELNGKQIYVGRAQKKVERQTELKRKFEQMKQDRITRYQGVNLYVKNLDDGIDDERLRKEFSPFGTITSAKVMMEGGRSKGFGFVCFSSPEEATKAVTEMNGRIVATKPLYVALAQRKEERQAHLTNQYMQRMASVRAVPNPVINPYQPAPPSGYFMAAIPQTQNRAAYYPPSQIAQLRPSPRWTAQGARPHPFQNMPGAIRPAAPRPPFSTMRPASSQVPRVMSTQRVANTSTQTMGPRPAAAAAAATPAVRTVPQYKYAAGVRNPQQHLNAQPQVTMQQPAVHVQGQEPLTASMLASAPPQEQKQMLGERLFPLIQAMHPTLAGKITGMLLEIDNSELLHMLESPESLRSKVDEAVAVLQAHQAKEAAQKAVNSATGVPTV
# CSC inhib: cancer stem cell inhibition | cancer stem cell-like cells viability, luminescence | inhibition, % at 7.5 µM | 300,000 compounds, 1.1% hits;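 active = mean at 75% or more and at least half the replicates too; inconclusive = mean and replicates disagree; tested in HMLE shEcad cells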;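 also: 0% = median of negative and 100% = median of positive control wells; the first replicate is given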
# eIF4H FP inh: inhibitors of RNA binding by human eIF4H | eIF4H fluorescence polarization binding assay | 290,000 compounds, 0.94% hits | inhibition, % at 35 µM | Q15056;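 active = 50% or more with normal probe brightness, or confirmed in later tests; inconclusive = above 50% with abnormal brightness, or retests that disagree; inactive = below 50% or failed in later tests; about a fifth of its hits are not listed in these tables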;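 also: calls also rest on retests at 20 µM and on dose response follow-up; 0% = protein and probe with vehicle and 100% = probe without protein; strong numbers were not always called active; many hits fall short of the cut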
# Rce1 inh: blocks yeast Ras-converting enzyme; 290,000 compounds, 0.27% hits; Q03530; yeast membranes, quenched prenylated peptide cleavage fluorescence; calls only; AID 2563;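 active = fall in fluorescence gain of 50% or more versus controls, with final raw signal at or below 3038400; inconclusive = same 50% fall but final raw signal above 3038400; inactive = fall in fluorescence gain under 50%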;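 also: plate controls were neutral control wells for no effect and wells lacking membranes for full effect; tested at 10 µM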
# Target sequence (Q03530 whole entry, looked up): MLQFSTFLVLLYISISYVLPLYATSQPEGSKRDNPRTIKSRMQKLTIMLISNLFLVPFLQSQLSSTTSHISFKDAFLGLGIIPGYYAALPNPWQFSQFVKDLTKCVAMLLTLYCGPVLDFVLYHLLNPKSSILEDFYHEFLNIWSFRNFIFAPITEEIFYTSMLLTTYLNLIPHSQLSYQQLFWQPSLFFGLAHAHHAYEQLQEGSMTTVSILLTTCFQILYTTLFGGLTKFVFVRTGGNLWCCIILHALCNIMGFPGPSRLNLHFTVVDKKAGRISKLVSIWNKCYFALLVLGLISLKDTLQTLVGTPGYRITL
# eIF4H FP inh retest: second read-out of eIF4H FP inh, no call of its own (marks repeat the call); inhibition, %; compound at 20 µM; confirmation average;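 mean of two retest wells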
# PABP FP inh retest: second read-out of PABP FP inh, no call of its own (marks repeat the call); inhibition, %; compound at 20 µM; confirmation repeats;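 mean of two retest wells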
# MT1-MMP act inh RFP: further read-out of MT1-MMP act inh, marked with its call; RFP signal change, %; measured here: RFP expression control read;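 0 = vehicle wells; hits needed this value within 50% of zero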
# Active calls of the source: *; i = inactive; ? = inconclusive; · = no result given. Some of the compounds tested; rates above refer to the full screens.
SMILES,UUG fidelity,Env fusion inh,MT1-MMP act inh,MT1-MMP act inh RFP,PABP FP inh,CSC inhib,eIF4H FP inh,Rce1 inh,others
Cc1cc[n+](CC(=O)N2CCCc3ccccc32)cc1,·,-14,3,3,-2,-16,5,i,
Cc1cccc(C(=O)O/N=C/c2c(N3CCOCC3)n(C)c3ccccc23)c1,·,·,·,·,-1,6,0,i,
COCCN1CCc2c(C)nc3c(-c4ccc(OC)c(OC)c4)cnn3c21,8,-69,15,-2,-1,-4,5,i,
CC(=O)c1ccc(OCc2cc(C(=O)N(C)CCN3CCOCC3)no2)cc1,-13,5,-1,0,-12,2,-7,i,
CCOC(=O)CCC(=O)Nc1ccc(S(=O)(=O)N2CCCCC2)cc1,-9,7,-6,0,-6,-8,-2,i,
CCc1cc(=O)oc2c(CNCc3c(F)cccc3Cl)c(O)ccc12,4,-10,0,2,-6,-14,-3,?,
Cc1ccc(OCC(=O)NNC(=O)CCc2ccccc2)c(Br)c1,-7,5,-1,2,-3,16,-11,·,
COc1ccc(NC(=O)CN(C)S(=O)(=O)c2cccc3nsnc23)cc1,-7,12,1,0,1,-10,5,i,
Oc1ccc(/C=N/NC2=NCCCCC2)c(O)c1,-16,·,8,5,-1,-8,-7,i,
CS(=O)(=O)Nc1ccc(Oc2ncccn2)cc1,-13,10,-1,2,2,1,5,i,
COc1ccc(-c2nn(C)c(=O)c3ccccc23)cc1CNS(C)(=O)=O,-12,·,8,10,-6,·,1,i,
CCO[C@@H]1OC(C(=O)N2CCN(Cc3ccc4c(c3)OCO4)CC2)=C[C@H](c2ccc(C(F)(F)F)cc2)[C@H]1CCCO,-8,-8,1,-8,10,21,-8,i,
COc1ccccc1-c1ccc2c(c1)C(C)(Cc1cc(Cl)ccc1C(F)(F)F)C(=O)N2 (stereo not given),-10,-3,-3,-9,·,·,·,·,
CN(C)/C=N/c1sccc1C(N)=O,-2,-19,5,5,25,·,17,i,
COc1cc(C2SCC(=O)N2CCc2ccc(OC)c(OC)c2)ccc1O (stereo not given),·,13,3,1,9,0,92,i,eIF4H FP inh retest=-2;PABP FP inh retest=10
O=C(c1ccccc1)c1ccc(OCCOCCN2CCN(Cc3ccccc3)CC2)cc1,·,21,-3,-13,11,24,14,i,
Cc1ccc(S(=O)(=O)N2Cc3ccccc3CC2C(=O)N(C)C)cc1 (stereo not given),-29,7,0,3,·,·,·,·,
O=C(OCc1nc2ccccc2[n+]([O-])c1C(=O)c1ccccc1)c1cccs1,·,2,1,2,-8,-1,0,i,
CC(C)(C)C(=O)Cn1c(NCCO)nc2ccccc21,3,·,3,5,-12,12,-12,i,
CCNC(=O)C1(C)CCCN(C(=O)c2ccc(OC)c(F)c2)C1 (stereo not given),-5,-10,1,3,·,·,·,·,
O=C(Cc1ccc(Cl)cc1)NCC(=O)N1CCCCCC1,-14,-7,-1,5,-6,-3,0,i,
COc1ccc(-c2cn(-c3ccc(OC)cc3)c(=S)[nH]2)cc1,-31,-42,-1,-2,-10,5,-2,i,
CC(C)(C)Cc1c(-c2cccc(Cl)c2)nc2ccc(Br)cn12,50,-13,3,2,·,·,·,·,
OCCN1CCN(c2ncnc3c2c(-c2ccccc2)cn3-c2ccc(Br)cc2)CC1,0,10,-7,-5,-1,27,-6,i,
Cc1ccc(S(=O)(=O)N(CC(=O)Nc2cccnc2)c2cccc(Br)c2)cc1,-4,-23,1,-5,2,·,0,i,

# Retrieved by compound from the entries so far, three records:
SMILES,UUG fidelity,Env fusion inh,MT1-MMP act inh,MT1-MMP act inh RFP,PABP FP inh,CSC inhib,eIF4H FP inh,Rce1 inh,others
CC(C)(C)C(=O)Cn1c(NCCO)nc2ccccc21,3,·,3,5,-12,12,-12,i,
CCNC(=O)C1(C)CCCN(C(=O)c2ccc(OC)c(F)c2)C1 (stereo not given),-5,-10,1,3,·,·,·,·,
Oc1ccc(/C=N/NC2=NCCCCC2)c(O)c1,-16,·,8,5,-1,-8,-7,i,

# (more compounds)
SMILES,UUG fidelity,Env fusion inh,MT1-MMP act inh,MT1-MMP act inh RFP,PABP FP inh,CSC inhib,eIF4H FP inh,Rce1 inh,others
Cc1sc(NC(=O)C2=COCCO2)nc1-c1ccc(Br)cc1,-11,6,3,-7,·,-7,·,i,
CCOC(=O)C1CCN(C(=O)C(C)Oc2ccc(Br)cc2)CC1 (stereo not given),-8,1,0,-2,5,-14,6,i,
COCCN(C(=S)Nc1c(C)cccc1C)C(C)c1cccnc1 (stereo not given),-5,5,6,6,-8,-20,-5,i,
CCOc1ccccc1/C=N/Nc1nc2c(N)ncnc2n1[C@H]1O[C@@H](CO)[C@H](O)[C@@H]1O,·,-1,-6,-5,0,15,-6,i,
COc1ccc(-c2sc3cc4c(cc3c2-c2ccc3c(c2)OCCO3)OCO4)cc1,-13,·,8,-3,·,59,·,·,
COc1ccc(C(=O)Nn2c(CC(C)C)nc3cc(OC)c(OC)cc3c2=O)c(OC)c1,-9,-196,2,-3,7,-16,-5,i,
CCOC(=O)c1c(C)[nH]c(C)c1S(=O)(=O)N(C)CC(=O)Nc1ccccc1C,-23,3,-1,3,8,-2,-10,i,
CNC(=O)COC(=O)c1cc(F)c(F)cc1Cl,-23,·,6,3,-10,-6,1,i,
CCNC(=O)C1(C)CCN(C(=O)c2cccc(Cl)c2)C1 (stereo not given),-16,20,2,2,·,·,·,·,
Cc1nccn1CCCNCc1c(C(=O)N2CCCCCCC2)nc2ccc(Cl)cn12,·,-14,-2,2,13,4,30,i,
CCOc1cc(/C=C\c2nc(O)c([N+](=O)[O-])c(=O)[nH]2)ccc1OC(C)C,-1,7,2,1,11,-13,0,i,
COc1ccc(-c2nc3ccc(N4CCN(C)CC4)cc3c(=O)[nH]2)cc1,·,14,1,4,-5,-9,1,i,
COc1ccc(-c2c(C#Cc3ccsc3)c3cc(-c4ccc5c(c4)OCCO5)ccc3n2C)cc1,-9,-32,12,4,·,-11,·,·,
Cc1ccc(S(=O)(=O)N2CCC(=O)N(CCO)CC2)cc1,-10,-25,3,3,-3,-6,-6,i,
CCSc1nc(-c2cccs2)nc2ccccc12,-16,7,-2,-4,3,20,7,i,
Cc1ccc(S(=O)(=O)N(C)C)cc1NC(=O)c1ccc(-n2cncn2)c([N+](=O)[O-])c1,-10,·,1,-2,·,8,·,·,
CCC(CC)C(=O)Nc1cc(C)c2c(=O)oc3ccccc3c2n1,-19,9,-10,-13,-6,27,-6,i,
Cc1ccc(S(=O)(=O)N(C)Cc2ccc(C(=O)NN=C3C4CC5CC(C4)CC3C5)cc2)cc1,-20,-19,4,10,25,24,-15,i,
CSc1nc(N)nc2c1ncn2CC(=O)NCCCc1ccccc1,-15,23,8,-11,·,·,·,·,
CCOCCCNC(=O)C1c2ccccc2Oc2ccccc21,-13,1,-6,4,6,-7,0,·,
COC(=O)C1=C(C)Nc2nc3ccccc3n2C1c1cc(OC)c(OC)c(OC)c1 (stereo not given),-27,16,11,5,-6,0,-6,i,
CS(=O)(=O)c1ccc(Cl)c(NC(=O)C2CC(=O)N(Cc3ccco3)C2)c1 (stereo not given),-11,-6,-8,0,·,6,·,i,
Cc1ccc(S(=O)(=O)NCCOC(=O)Nc2sc(=S)n(C)c2C)cc1,-17,·,-3,3,-4,7,0,i,
Nc1c(/C=C2\C=Nc3ccccc32)c(=O)nc2sc(CC(=O)N3CCOCC3)nn12,-6,5,0,4,·,-2,·,i,
Cc1ccc(C(CC(=O)c2ccco2)SCCO)cc1 (stereo not given),-13,-76,-5,-6,12,13,-5,i,
# Continued.
SMILES,UUG fidelity,Env fusion inh,MT1-MMP act inh,MT1-MMP act inh RFP,PABP FP inh,CSC inhib,eIF4H FP inh,Rce1 inh,others
COc1ccc(C2NC(=S)NC(C)=C2C(=O)Nc2ccccn2)cc1OC (stereo not given),·,·,1,3,14,-3,3,i,
N#CCSc1nnc(-c2cnccn2)n1Cc1ccccc1,-10,?,2,4,6,-11,4,i,
CCCC[C@H]1COCCS(=O)(=O)N1Cc1cccc(Cl)c1,0,9,2,0,12,0,12,i,
COC(=O)c1cc(COc2ccc3oc(C)c(C(=O)OC(C)C)c3c2)c(C)o1,3,·,0,-7,3,19,-5,i,
CC1(Cc2ccc(Cl)cc2)C(=O)Nc2ccc(-c3cccnc3)cc21 (stereo not given),-14,69*,-20,-11,·,·,·,·,
COc1ccc2[nH]c3c(c2c1)CCN1C(=O)C(CC(=O)NCc2ccco2)C[C@H](C(=O)N2CCOCC2)[C@@]31CCC1CCCC1 (stereo not given in full),-1,-1,-8,-8,·,·,·,·,
CC(=O)Nc1ccc(S(=O)(=O)NNC(=O)NC23CC4CC(CC(C4)C2)C3)cc1,6,1,-1,-1,6,11,68,i,eIF4H FP inh retest=-3;PABP FP inh retest=13
Cc1nc(SCc2cccc(F)c2)[nH]c(=O)c1C#N,-15,8,2,7,-3,-2,-2,·,
Nc1nnc(SCc2cn3cc(Cl)ccc3n2)s1,-29,0,3,7,-19,·,4,i,
CN(CC(=O)Nc1ccc(F)cc1)C(=O)CN1C(=O)c2cccc([N+](=O)[O-])c2C1=O,-7,·,0,-2,·,1,·,·,
COc1ccc(Cl)cc1NC(=O)CN1c2ccccc2CC1C (stereo not given),-5,24,0,-2,0,6,-8,i,
COc1cc(/C=C2\SC(=Nc3ccccc3)NC2=O)cc(Cl)c1O,-19,9,-22,24,?,27,?,i,
Cc1ccc(-c2nnc(NCc3nc4ccccc4[nH]3)c3ccccc23)cc1S(=O)(=O)N(C)C,-14,·,2,-7,20,3,-3,i,
COC(=O)c1cnc2c(c1C(=O)OC)c(=O)n(C)c(=O)n2C,·,·,-1,2,-4,-3,-8,i,
CC1CC(C)CN(CC(=O)N2CCCc3c2c(=O)oc2ccc(OCc4ccccc4)cc32)C1 (stereo not given),3,·,-5,-13,-10,26,-3,i,
CC(C)CC1C(=O)N(Cc2cn(CCC3OCCCO3)nn2)CCS(=O)(=O)N1Cc1ccc(-c2cccc(CO)c2)cc1 (stereo not given),-3,-55,2,1,·,·,·,·,
O=c1c2ccccc2nnn1CSc1ccc2c(c1)OCCO2,-43,-137,-1,1,-6,11,-9,i,
COC(=O)C1=C(C)NC(=O)NC1c1ccc2ccccc2c1 (stereo not given),-14,5,9,1,1,-11,2,·,
COc1ccc(-c2ccnc3[nH]n(-c4ccccc4)c(=O)c23)cc1,-15,-2,-5,-1,-12,-3,9,i,
c1ccc(Cn2cc(CN3CCCCO3)c(-c3ccc4c(c3)OCO4)n2)cc1,·,9,-6,-6,-4,-11,-8,i,
CC(=O)NS(=O)(=O)c1ccc(NC(=O)CC23CC4CC(CC(Br)(C4)C2)C3)cc1,8,2,3,-1,-9,2,-2,i,
COc1cc(CN2CCN(c3cccc(Cl)c3)CC2)cc(OC)c1OC,-4,?,-6,-11,-7,93*,3,i,
Nc1c(C(=O)OCC(=O)Nc2cccc([N+](=O)[O-])c2)[nH]c(=O)[nH]c1=O,-22,·,-4,4,·,-16,·,·,
Cc1nn2c3ccccc3n(CC(=O)c3cccs3)c2nc1=O,·,16,-1,0,3,-13,0,i,
CC(C)NC(=S)Nc1ccc(S(=O)(=O)Nc2ncccn2)cc1,-14,·,3,5,-7,-7,11,i,
COc1cnn(-c2ccc(C)cc2)c(=O)c1SCc1ccccc1,-6,·,-7,-5,-5,-10,-19,i,
CCOc1ccccc1NC(=O)C(=O)NCCC1=CCCCC1,·,-4,0,1,-14,9,6,i,
CC(Sc1ncnc2sccc12)C(=O)Nc1ccc(C(N)=O)cc1 (stereo not given),0,7,-3,0,12,1,-2,i,
